Six1-Eya2 blk – qHTS Assay for Inhibitors of the Six1/Eya2 Interaction; Homeobox protein SIX1 (Homo sapiens) + Protein phosphatase EYA2 (Homo sapiens), …; AID 651725, 2012; AlphaScreen GST-Six1/His-Eya2 binding, biochemical; active compounds read low; control for the full effect not named in the record; activity change, % (test concentration not listed); 360,000 compounds, 0.56% hits; in the data active = activity change below about -65%; inconclusive = about -30% to -65%; inactive = above about -30%; also: % is scaled to controls: 0 for no effect and ±100 for the full control effect
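Compounds are tested against tagged Six1 and Eya2 proteins bridged by glutathione donor and nickel acceptor beads; after a one-hour incubation at 37 °C without light, AlphaScreen emission is recorded.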
CtBP-E1A blk – qHTS Assay for Inhibitors of the CtBP/E1A Interaction; AlphaScreen GST-E1A/His-CtBP binding, 1536-well; active compounds read low; control for the full effect not named in the record; activity change, % (test concentration not listed); 340,000 compounds, 0.49% hits; AID 651724, 2012; in the data active means activity change below about -65%; inconclusive means about -30% to -65%; inactive means above about -30%; also: % is scaled to controls: 0 for no effect and ±100 for the full control effect
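Steps: dispense buffer (Tris pH 8.0, NaCl 300 mM, TCEP 1 mM, BSA, Tween 20); add 5X protein mix (GST-E1A, His-CtBP, 125 nM each); pin 23 nL compound; 2 h at 37 °C, dark; add 5X beads (50 ug/mL); 1 h; read.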
TRPML1 blocker – qHTS for Inhibitors of the Human Mucolipin Transient Receptor Potential 1 (TRPML1); activity change, negative = inhibition, % (no concentration beside the values); Mucolipin-1 (Homo sapiens), Q9GZU1; TRPML1-inducible cells, Ca2+ dye fluorescence, FDSS; active compounds read low; inhibition of EC80 agonist-evoked calcium signal; 390,000 compounds, 0.02% hits; in the data active means activity change below about -50%; inconclusive means about -30% to -50%; inactive means above about -30%;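 also: stimulus is agonist 54-4 at its EC80 concentration; % is scaled to controls: 0 for no effect and ±100 for the full control effect; compound concentration not given in the record; the text of the record puts the active cut at -80%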
Target sequence (Q9GZU1 whole entry, looked up): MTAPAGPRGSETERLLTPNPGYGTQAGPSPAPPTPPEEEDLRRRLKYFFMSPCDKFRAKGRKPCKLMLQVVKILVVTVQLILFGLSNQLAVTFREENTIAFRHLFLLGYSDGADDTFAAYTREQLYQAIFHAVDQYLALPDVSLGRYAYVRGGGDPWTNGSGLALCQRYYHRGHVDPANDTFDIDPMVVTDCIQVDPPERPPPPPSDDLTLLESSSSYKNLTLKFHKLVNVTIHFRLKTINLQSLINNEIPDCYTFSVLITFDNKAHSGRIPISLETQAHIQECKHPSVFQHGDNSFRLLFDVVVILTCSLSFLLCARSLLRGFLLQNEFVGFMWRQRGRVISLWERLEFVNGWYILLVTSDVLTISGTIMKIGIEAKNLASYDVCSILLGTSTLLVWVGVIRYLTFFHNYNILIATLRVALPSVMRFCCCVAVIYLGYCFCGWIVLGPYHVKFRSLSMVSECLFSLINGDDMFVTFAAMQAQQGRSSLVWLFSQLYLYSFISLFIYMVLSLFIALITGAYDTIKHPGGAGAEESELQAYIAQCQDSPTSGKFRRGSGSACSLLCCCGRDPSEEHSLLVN
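TRPML1-DL cells, Tet-induced overnight (~16 h, 37 °C) at 1,500 cells/well, were loaded with Ca8 no-wash dye plus quencher for 45-90 min at room temperature. Compounds were pinned during FDSS kinetic reading; agonist 54-4 at EC80 (4 uM final) then added.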
TRPV1 potentiator – HTS Assay for Compounds that Act as Potentiators of the Vanilloid Receptor 1. potentiation, % at 8.33 µM. Transient receptor potential cation channel subfamily V member 1 (Homo sapiens), Q8NER1. AID 540277, 2011. TRPV1-expressing cells, Fluo-8 calcium influx, capsaicin EC20 potentiation; host cell line not named in the record; control for the full effect not named in the record. 320,000 compounds, 0.02% hits; active means potentiation above 80%; inconclusive means 30% to 80%; inactive means below 30%; also: 0% is about no effect
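Fluo-8 calcium influx in TRPV1-expressing cells, kinetic read (ex 480/em 520 nm). Compound added and read 3 min for agonist activity, followed by capsaicin at EC20 final and 2 min further read for enhancement.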
D2 PAM – Beta-Arrestin HTS for Positive Allosteric Modulators of the Human D2 Dopamine Receptor: Potentiators. D(2) dopamine receptor (Homo sapiens), P14416. DiscoveRx D2 beta-arrestin cells, luminescence, 90 min; 100% = 57 uM dopamine signal. potentiation, % (concentration not given with the values). 360,000 compounds, 0.23% hits; active = potentiation of 50% or more; inconclusive = 30% to 50%; inactive = 30% or less;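 also: tested on top of an EC20 dose of dopamine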
Target sequence (P14416 whole entry, looked up): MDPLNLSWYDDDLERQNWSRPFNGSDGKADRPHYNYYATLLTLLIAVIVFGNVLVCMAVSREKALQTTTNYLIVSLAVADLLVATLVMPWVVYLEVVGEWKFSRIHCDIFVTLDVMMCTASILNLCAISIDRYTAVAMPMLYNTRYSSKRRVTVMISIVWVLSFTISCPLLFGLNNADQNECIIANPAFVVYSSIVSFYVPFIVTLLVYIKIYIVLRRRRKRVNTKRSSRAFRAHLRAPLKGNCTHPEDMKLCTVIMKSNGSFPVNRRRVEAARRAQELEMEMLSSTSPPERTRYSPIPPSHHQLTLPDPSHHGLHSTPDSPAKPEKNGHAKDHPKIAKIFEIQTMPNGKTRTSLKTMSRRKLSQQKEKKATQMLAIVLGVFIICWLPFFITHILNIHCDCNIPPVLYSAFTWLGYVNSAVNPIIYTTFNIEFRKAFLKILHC
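PathHunter beta-arrestin assay in DiscoveRx D2 cells. Compounds were added with an EC20 of dopamine (50 nM final) for 90 min at 37 deg C. Luminescence was read 1 h after detection reagent, with 57 uM dopamine as the EC100 control.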
TRPML1 ag – qHTS for Agonists of the Human Mucolipin Transient Receptor Potential 1 (TRPML1); activation, % (concentration not given with the values); 410,000 compounds, 0.12% hits; TRPML1-expressing cells, Ca2+ dye fluorescence, FDSS; host cell line not named in the record; reference of the full effect not given here; AID 624414, 2012; in the data active = activation above about 50%; inconclusive = about 30% to 50%; inactive = below about 30%; also: 0% is about no effect; the text of the record puts the active cut at 80%
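Tetracycline-induced TRPML1-DL cells are seeded and incubated overnight before loading with a no-wash Ca2+ dye and quencher. Agonist activity is taken from the 110 s fluorescence read following compound pin-transfer on an FDSS, before EC80 54-4 challenge.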
* = called active by the depositor; ? = inconclusive; · = not tested or not shown; & = joins results of further samples.

SMILES	Six1-Eya2 blk	CtBP-E1A blk	TRPML1 blocker	TRPV1 potentiator	D2 PAM	TRPML1 ag
Cc1coc2cc3oc(=O)c4c(c3cc12)CCCC4	-1	2	11	-7	-1	-0.3
CCOC(=O)C1=C(COC(=O)/C=C/c2ccc(O)c(OC)c2)NC(=O)NC1C (stereo not given)	-2	-4	21	-5	4	-0.7
Cc1cc(C(C)(C)C)ccc1Oc1cccc2c1S(=O)(=O)N(C1CCCC1)CC(COCc1ccccc1)O2 (stereo not given)	2	-3	-14	·	·	-0.1
COc1ccc(N(C)S(=O)(=O)c2ccc(Cl)c(C(=O)NNC(=O)c3ccccc3O)c2)cc1	-3	-2	4	7	-20	1.0
CCCc1cc(=O)n2[nH]c(C)cc2n1	3	-2	2	6	-1	0.6
O=C(C[n+]1ccc2ccccc2c1)c1cccc2ccccc12	2	2	5	-16	-5	0.1
COc1ccc(N(CC(=O)Nc2cccc3ccccc23)S(C)(=O)=O)cc1	6	-18	-29	-4	-4	-0.2
O=C1Nc2c(c(=O)[nH]c(=O)n2-c2ccccc2)C1(Nc1ncccn1)C(F)(F)F (stereo not given)	27	33	-17	1	-14	1.0
COc1ccccc1CNc1ncnc2c1nnn2Cc1ccccc1	-3	2	-9	-7	13	-0.9
COCCNC(=O)c1cc2c(c(-c3cccc(-c4cc5ccccc5o4)c3)n1)[C@@H](CCO)N(S(=O)C(C)(C)C)C2 (stereo not given in full)	-6	-14	·	·	4	-0.4
O=c1c2c3c(sc2nc(NCCOCCO)n1Cc1ccco1)CCCCC3	-1	-2	-23	-3	0	1.9
CCOC(=O)c1cnn(-c2nc(-c3ccc(F)cc3)cs2)c1C(F)(F)F	12	10	-4	-12	-3	-0.6
O=C(c1ccco1)N1CCN(Cc2nc3ccc([N+](=O)[O-])cc3c(=O)n2-c2ccccc2F)CC1	-25	?	-1	2	1	0.5
CC(c1nc2ccccc2c(=O)[nH]1)N1CCN(C)CC1 (stereo not given)	5	8	2	-3	-20	0.5
CCCC1CC(CSc2ncn[nH]2)OC1=O (stereo not given)	1	12	4	1	-4	0.2
CCCCCCCCCCCC(=O)N1CC(=O)NC(=O)C1	0	4	-10	·	-1	0.2
Cc1cc(C)c2oc(-c3cccc(N)c3)nc2c1	4	·	-8	1	0	1.4
NC(=O)CSc1nnc(-c2ccc(S(=O)(=O)N3CCCC3)cc2)n1Cc1ccco1	0	0	1	-2	-1	0.1
CC(=O)N1CCOc2ccc(S(=O)(=O)Nc3ccc(C)cn3)cc21	4	-1	0	12	-8	0.0
COC(=O)c1cc(S(=O)(=O)N2CCN(c3ccccc3OC)CC2)cn1C	0	4	7	2	-7	0.3
Cc1c(CC(=O)N[C@@H](C)C(=O)O)c(=O)oc2c(C)c3occ(-c4ccccc4)c3cc12	-65*	-83*	5	-23	2	0.8
Cc1ccc(-c2cnc(C(O)c3cccc(Cl)c3)[nH]2)cc1 (stereo not given)	-21	-15	·	·	-8	-1.4
COc1ccc(CC(=O)Nc2cc(C)on2)cc1OC	5	1	-9	-3	-13	-0.2
Cc1ccc2nc(NC(=O)CSCc3ccccc3)sc2c1	3	-2	-1	-9	-3	5.2
CC(C)(C)Cc1c(-c2ccccc2)nc2ccc(Cl)cn12	12	6	28	·	3	0.2
CC(C)n1ncc2c(C(=O)Nc3ccc(S(C)(=O)=O)cc3)cc(C3CC3)nc21	-2	·	3	-10	-12	1.9
CCOC(=O)C1(NC(=O)C2(N3C(=O)c4ccccc4C3=O)CCCC2)CCCC1	7	-4	11	·	-12	-0.4
N#Cc1c(C#N)c(O)c2ccccc2c1O	-6	·	30	8	7	2.3
NC(c1cccc(F)c1)c1nc(-c2ccc(Cl)cc2)cs1 (stereo not given)	10	-17	-23	·	-11	0.4
COc1ccc(C2/C=C\CN(C(=O)Oc3ccc(C(F)(F)F)cc3)CC(=O)N2Cc2ccc(F)cc2)cc1 (stereo not given)	-11	-20	15&45	?	-11	0.7&1.8
CN(C(=O)COc1cc(=O)n(C)c2ccccc12)c1ccc(Cl)cc1	3	1	0	-1	-3	1.0
CSc1ccccc1C(=O)N(CC1CCCO1)c1c(N)n(Cc2ccccc2)c(=O)[nH]c1=O (stereo not given)	9	-23	10	-2	-1	-0.2
Cc1ccc(NC(=O)C2(C)CCN2C(=O)C2CCCCC2)cc1C (stereo not given)	2	-1	·	·	-6	-1.0
COc1cc(NS(=O)(=O)c2ccc(-n3cccn3)cc2)cc(OC)c1	0	2	3	·	-7	0.3
CC1=C(C(=O)Nc2ccc(C)cc2)C(c2ccc(N(C)C)cc2)NC(=O)N1 (stereo not given)	-5	-7	0	?	-3	2.3
O=C(/C=C/c1cccs1)N1CCC2(CC1)Oc1ccc(Cl)cc1C(=O)C21CC(c2cccnc2)=NO1 (stereo not given)	1	-1	-4	-18	-7	0.5
COC(=O)NCCOc1nc(N(C)C)nc(N(C)C)n1	5	3	0	2	7	0.7
COc1ccc(C2/C=C\CN(Cc3ccc(N(C)C)cc3)CC(=O)N2Cc2ccc(F)cc2)cc1 (stereo not given)	?	-29	28	-15	-7	2.6
CCCC1C(C(=O)OCC)=C(C)NC(C)=C1C(=O)OCC	8	15	52	-6	3	3.4
COc1ccc(NC(=O)C(NC(=O)Cc2cccs2)c2ccc(C)cc2)cc1 (stereo not given)	0	-3	-6	?	7	-0.5
Cc1ccc(CSCCC(=O)NCCc2ccc(Cl)cc2)cc1	5	1	1	-3	-15	0.5
CN1CCN(c2cc(-c3cccc(C(=O)O)c3)nc3ccnn23)CC1	-1	7	-12	·	-5	-0.1
NC(Cc1ccc(Cl)cc1)c1csc(NC(=O)Nc2ccccc2-c2ccccc2)n1 (stereo not given)	-6	-7	·	·	7	0.4
CCCCNC(=O)c1nn2c(C(F)(F)F)cc(-c3ccccc3)nc2c1Br	-7	-14	32	3	-1	2.0
Cc1cccc(C(=O)Nc2nnc(S(=O)(=O)N3CCOCC3)s2)c1	-1	-10	-7&41	7	-9	-0.1&-0.3
O=C1C(c2ccccc2)c2ccccc2N1Cc1ccccc1 (stereo not given)	-5	3	-20	·	-14	0.2
Cc1cc(OC2CCCCC2)nc(-c2ccccc2O)n1	20	23	7	-17	3	1.0
CN(C)/C=c1\sc2c(C#N)cc(C(=O)c3ccc(Br)cc3)n2c1=O	6	1	2	18	-2	0.3

Structures listed above printed as active in CtBP-E1A blk.
mol | Six1-Eya2 blk | CtBP-E1A blk | TRPML1 blocker | D2 PAM
Cc1c(CC(=O)N[C@@H](C)C(=O)O)c(=O)oc2c(C)c3occ(-c4ccccc4)c3cc12 | -65* | -83* | 5 | 2

Arranged by count of non-hydrogen atoms (low to high): some entries from above
SMILES	Six1-Eya2 blk	CtBP-E1A blk	TRPML1 blocker	TRPV1 potentiator	D2 PAM	TRPML1 ag
COc1ccc(CC(=O)Nc2cc(C)on2)cc1OC	5	1	-9	-3	-13	-0.2
COc1ccc(NC(=O)C(NC(=O)Cc2cccs2)c2ccc(C)cc2)cc1 (stereo not given)	0	-3	-6	?	7	-0.5
CCOC(=O)C1(NC(=O)C2(N3C(=O)c4ccccc4C3=O)CCCC2)CCCC1	7	-4	11	·	-12	-0.4

Of the compounds above, three contain an aryl thioether with sulfur outside any ring.
SMILES	Six1-Eya2 blk	CtBP-E1A blk	TRPML1 blocker	TRPV1 potentiator	D2 PAM	TRPML1 ag
CCCC1CC(CSc2ncn[nH]2)OC1=O (stereo not given)	1	12	4	1	-4	0.2
NC(=O)CSc1nnc(-c2ccc(S(=O)(=O)N3CCCC3)cc2)n1Cc1ccco1	0	0	1	-2	-1	0.1
CSc1ccccc1C(=O)N(CC1CCCO1)c1c(N)n(Cc2ccccc2)c(=O)[nH]c1=O (stereo not given)	9	-23	10	-2	-1	-0.2

The list goes on.
SMILES	Six1-Eya2 blk	CtBP-E1A blk	TRPML1 blocker	TRPV1 potentiator	D2 PAM	TRPML1 ag
CN(C)S(=O)(=O)c1cccc(NC(=S)N(CCC#N)Cc2cccnc2)c1	6	12	-9	3	2	-1.0
CN(Cc1ccccc1)S(=O)(=O)c1ccc(Cl)c(C(=O)N2CCC2)c1	13	8	-4	1	-9	-0.6
Cc1cc(NC(=O)COc2ccc(Cl)cc2Cl)n(-c2ccccc2)n1	-4	4	9	-1	-12	-0.4
Cc1ccc(NC2=CC(=O)CC(C)(C)C2)cc1Cl	2	7	-15	-23	1	1.2
N#CC1=C(N)Oc2c(oc(CO)cc2=O)C12C(=O)Nc1ccc(Cl)cc12 (stereo not given)	3	-8	-3	-1	-9	0.8
FC(F)Sc1ccc(Nc2ncnc3nc[nH]c23)cc1	-1	-1	9	17	7	1.6
O=C(NCCc1ccc(Cl)cc1)C1CCN(c2ncccn2)CC1	3	2	3	3	-26	-0.4
CCCCn1c(O)c2n(c1=O)Cc1ccccc1N=C2c1ccccc1	-1	6	·	·	3	-0.6
CC1CCN(C(=O)COC(=O)CNC(=O)c2ccccc2F)CC1	6	7	0	-7	0	-0.1
O=c1[nH]c(Nc2ccccc2)cc2cc(Br)ccc12	-3	-6	13	·	-7	2.4
Cc1ccc(S(=O)(=O)NNC(=O)Nc2cccc3ccccc23)cc1	-1	-3	-2	0	0	1.2
Cc1nc2c3ccccc3nc(NNC(=O)CCC(=O)N3CCCC(C)C3)n2n1 (stereo not given)	-16	·	-5	17	-8	-0.3
CCn1c(C2CCN(Cc3ccccc3)CC2)n[nH]c1=S	9	-19	-6	-3	-17	-0.3
COc1ccc(CN2CCc3ccccc3C2)c(OC)c1OC	0	2	-10	-9	-23	0.8
CCCCN(C)CCCN1C(=O)C2C(C(=O)Nc3cccc(OC)c3)C3C=CC2(O3)C1C(=O)NC1CCCCC1C (stereo not given)	20	7	20	4	-13	0.8
c1ccc2c(c1)ncn2CCOCCOCCn1cnc2ccccc21	1	-2	-4	-20	-14	-0.2
CCc1ccc(-c2nn[nH]n2)cc1	4	3	21	-1	-5	-0.5
CC(Sc1nc2ncc(Cl)cc2[nH]1)C(=O)NC1(C#N)CCCCC1 (stereo not given)	18	·	-15	-4	-5	-1.7
O=C(CCN1CCCCC1)c1ccccc1	3	7	16	6	-14	0.9
COc1ccc(S(=O)(=O)NCc2ccncc2)cc1NC(=O)c1ccc(Cl)cc1	4	-13	39	-16	-19	0.4
Cc1cc(=O)[nH]c(N/N=C/c2ccc(N(C)C)cc2)n1	-11	-24	6	10	0	0.4
Cc1cc(C)c(S(=O)(=O)Nc2ccc(Cl)cn2)c(C)c1	-8	-2	-5	4	-1	0.2
CN(C(=O)CSc1ccc2c(c1)OCCO2)c1ccccc1	-3	·	4	·	-9	-1.7
O=C(CC(C(=O)NCc1ccccc1)c1nc2ccccc2c(=O)[nH]1)NCc1ccccc1 (stereo not given)	-9	·	-26	1	-14	0.0
Oc1ccc(-c2csc(Nc3ccccn3)n2)c(O)c1	2	·	·	0	10	·
COc1ccccc1NC(=O)c1cc(-c2cc(OC)c(OC)c(OC)c2)nc2ccccc12	0	7	1	0	2	2.6

Bioassay records deposited in PubChem by National Center for Advancing Translational Sciences (NCATS).

Outcome played no part in choosing rows. Share with any hit: about 0.95%.
